# Bioassay records: PubChem, several laboratories
# LANA-H2B inh = blockers of LANA interaction with H2A/H2B – biochemical, FP readout, HTS, primary screen; Protein LANA1 (Human herpesvirus 8 type P (isolate GK18)), Q9QR71; cell-free LANA-H2A/H2B peptide, fluorescence polarization; inhibition, % (no concentration beside the values); 320,000 compounds, 0.6% hits; in the data active means inhibition mostly above about 10%, no sharp cut-off; inactive means mostly below about 6.7%;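 further: stock transfer was 7.5 nL into about 10 µL; 0% = median of vehicle wells and 100% = median of positive control wells; one replicate is shown; the record names a cut of 25% in any replicate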
# ALR H2O2 inh = inhibitors of human ALR sulfhydryl oxidase, primary screen, biochemical, H2O2 detection, HRP-luminol luminescence, single point; AID 485317, 2010; purified ALR, DTT oxidation; FAD-linked sulfhydryl oxidase ALR (Homo sapiens), P55789; 290,000 compounds, 3.8% hits; inhibition, % (test concentration not listed);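 active means mean and each replicate at 75% or more; inconclusive means only one of the two met; inactive means neither met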;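 further: stock transfer was 7.5 nL into about 7.5 µL; 0% = neutral wells and 100% = wells with inactivated enzyme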
# Target sequence (P55789 whole entry, looked up): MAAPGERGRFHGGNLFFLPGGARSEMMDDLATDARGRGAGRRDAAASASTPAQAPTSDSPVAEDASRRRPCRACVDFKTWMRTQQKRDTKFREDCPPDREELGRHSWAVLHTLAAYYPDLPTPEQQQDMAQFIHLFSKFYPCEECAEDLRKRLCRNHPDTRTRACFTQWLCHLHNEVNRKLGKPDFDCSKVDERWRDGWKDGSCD
# Vif TR-FRET = inhibitors of Vif binding to APOBEC3G peptide, primary screen, biochemical, TR-FRET, GST-Vif 1-94, biotin-A3G peptide, dose response retest (AID 1117319). Virion infectivity factor (Human immunodeficiency virus type 1 group M subtype B (isolate …. TR-FRET GST-Vif / biotin-A3G peptide binding; higher % means a stronger effect; test concentration not given here; strong numbers were not always called active. one-dose inhibition, %; IC50 in µM for titrated hits. 260,000 compounds, 0.57% hits;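 active means above the screen mean plus three standard deviations and confirmed in dose response; inconclusive means results disagree or hit not tested in dose response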;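 further: Vif residues 1-94 fused to GST binding biotinylated APOBEC3G peptide 110-148; 0% = full assay without inhibitor and 100% = GST in place of GST-Vif; retest series ran down from 100 µM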
# Calb FLC = C. albicans growth inhibition with fluconazole, primary screen, CaCi-2 strain, Alamar Blue fluorescence; C. albicans CaCi-2 (fluconazole-resistant clinical isolate) + fluconazole, 48 h; growth inhibition, % (no concentration beside the values); 300,000 compounds, 0.57% hits;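 active means most replicates above 75%; inconclusive means exactly half above 75%; inactive means most below 75%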;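 further: all wells also contain fluconazole at 8 µg/ml as a sub-toxic cotreatment; 0% = median of DMSO wells and 100% = median of geldanamycin control wells; wells of about 8 µL received 7.5 nL stock; the first replicate is given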
# HNF4A DNA FP = change in binding of human HNF4A to DNA, primary screen, biochemical, fluorescence polarization, FITC-DNA | Hepatocyte nuclear factor 4-alpha (Homo sapiens), P41235 | 1 h | activity change, % at 10 µM | 360,000 compounds, 0.3% hits; in the data active means activity change above about 30%, passing the limit was not always enough;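 further: controls were the assay level and a saturating level of protein; the project sought stronger binding though the title names inhibitors; some compounds called inactive have numbers as strong as hits; positive values seem to mean higher polarization but the record does not say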
# RanGTP-Imp inh = inhibitors of RanGTP-importin-beta interaction, primary screen, biochemical, FRET, CFP-Ran, YFP-importin-beta, homogeneous; inhibition, % (no concentration beside the values); cell-free CFP-Ran/YFP-importin-beta FRET ratio; 300,000 compounds, 1.1% hits; Ran GTPase (GTP-bound) - importin-beta complex; AID 2216, 2009;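 active means most replicates above 15%; inconclusive means exactly half above 15%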;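 further: 0% = DMSO wells and 100% = Ran loaded with GDP instead of GTP; wells of about 40 µL received 100 nL stock; the first replicate is given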
# Beta2AR agonist = beta2AR agonists driving receptor internalization, primary screen, cell-based, FAP fluorogen, flow cytometry. Beta-2 adrenergic receptor (Homo sapiens), P07550. Am2.2-beta2AR cells; reference of the scale not given here. response, % (no concentration beside the values). 340,000 compounds, 0.43% hits;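 active means response above a set limit, near 3 SD of response in nonfluorescent compounds, cut at about 42% in these data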;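 further: stock transfer was 100 nL into about 11 µL; a reference agonist was the positive control; negative values mostly stem from fluorescent compounds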
# Target sequence (P07550 whole entry, looked up): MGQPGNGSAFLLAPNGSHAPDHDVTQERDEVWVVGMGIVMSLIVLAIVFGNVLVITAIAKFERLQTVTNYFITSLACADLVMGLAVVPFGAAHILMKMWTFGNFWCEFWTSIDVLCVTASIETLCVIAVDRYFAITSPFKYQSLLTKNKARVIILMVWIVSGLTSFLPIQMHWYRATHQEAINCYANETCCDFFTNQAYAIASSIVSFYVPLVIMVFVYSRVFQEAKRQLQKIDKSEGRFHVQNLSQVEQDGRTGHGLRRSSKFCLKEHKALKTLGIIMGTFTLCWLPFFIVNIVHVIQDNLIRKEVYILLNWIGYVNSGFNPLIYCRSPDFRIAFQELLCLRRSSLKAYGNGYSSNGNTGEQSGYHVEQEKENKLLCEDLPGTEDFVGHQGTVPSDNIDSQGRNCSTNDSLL
# The depositor's hits bear a star; ? = inconclusive; nt = not tested or not shown.
1: CCCn1nc(NS(=O)(=O)c2cccc3nonc23)c2cc3cc(C)ccc3nc21
2: CCOc1cc(-c2sc(Nc3cc(C)ccc3OC)n[n+]2-c2ccccc2)ccc1OC
3: C[C@@H]1CN([C@@H](C)CO)C(=O)c2cccc(NC(=O)c3nc4ccccc4s3)c2O[C@@H]1CN(C)CC1CC1
4: CCc1cc(C(=O)NCCN(C)C)cs1
5: N#CC1CN(Cc2ccccc2)CN(Cc2ccccc2)C1
6: CCCCCCCCC(=O)NNC(=O)c1c(O)c2ccccc2n(CCC)c1=O
7: COCCNCCCCOc1ccc(Br)cc1C
8: CN(C)c1nc(OCCOC(=O)c2ccccc2)nc(N(C)C)n1

Compound | 1 | 2 | 3 | 4 | 5 | 6 | 7 | 8
LANA-H2B inh | -3.5 | -2.5 | -1.0 | -2.5 | 4.2 | -1.4 | -4.3 | 3.3
ALR H2O2 inh | 36.7 | nt | nt | -3.9 | nt | 2.5 | -1.1 | -0.9
Vif TR-FRET | nt | nt | 5.9% | -1.6% | -9.2% | -11.4% | nt | 0.2%
Calb FLC | 7.7 | nt | nt | 20.1 | 3.6 | -2.9 | -2.5 | -23.0
HNF4A DNA FP | -0.2 | 2.8 | 2.9 | -1.9 | -2.8 | 1.3 | -2.7 | 1.5
RanGTP-Imp inh | 1.5 | nt | nt | -1.7 | 6.0 | -1.7 | -0.5 | -2.9
Beta2AR agonist | 18.6 | 1.7 | -0.1 | -6.7 | 5.4 | 4.0 | 25.0 | 1.9

9: COc1ccc(C)cc1S(=O)(=O)N1CCC(C(=O)NCCc2ccccc2)CC1
10: N=C1C(c2ccccc2)=C(O)CN1c1cccc(S(=O)(=O)N2CCOCC2)c1
11: COc1ccccc1CCCNC(=O)C1CCC(=O)N(CCN2CCOCC2)C1 (configuration not stated)
12: O=C(c1cccs1)N1CCN(c2ccccc2)CC1
13: Cc1ccc(C(=O)NNC(=O)c2csc(N3CCOCC3)n2)s1
14: Nc1cc(=O)[nH]c(SCC(=O)Nc2ccc(N3CCCCC3)cc2)n1
15: CCC(=O)c1c(OCc2ccccc2)ccc2c(C)cc(=O)oc12
16: C=CCC(Nc1ccco1)c1ccccc1 (configuration not stated)

Compound | 9 | 10 | 11 | 12 | 13 | 14 | 15 | 16
LANA-H2B inh | 3.5 | 7.7 | -0.1 | 0.8 | 5.4 | 6.8 | -4.8 | -1.7
ALR H2O2 inh | -3.1 | 3.9 | -0.7 | 98.2* | 5.1 | ? | -2.6 | -6.8
Vif TR-FRET | -1.1% | ? | -6.9% | 0.8% | 3.9% | nt | nt | 12.3%
Calb FLC | 4.0 | 10.3 | -11.1 | -17.6 | 3.9 | nt | ? | -1.9
HNF4A DNA FP | -2.2 | 5.0 | 0.9 | 3.4 | 0.8 | -2.3 | nt | -2.8
RanGTP-Imp inh | -1.2 | 5.9 | 0.0 | -0.5 | -0.6 | nt | -1.7 | -0.4
Beta2AR agonist | 4.4 | 1.4 | 0.2 | -0.4 | 3.3 | 0.2 | nt | 0.7

17: Cc1cccc(N(CC(=O)Nc2ccc(F)cc2)S(C)(=O)=O)c1
18: O=C(O)c1cccc(Nc2ncnc3ccc(Br)cc23)c1
19: CN(Cc1ccc(Cl)s1)C(=O)CN1C(=O)N(C)C2(CCCCC2)C1=O
20: O=C(O)CC1(CC(=O)NCc2ccc(F)cc2)CCCCC1
21: COc1ccc(NC(=O)CN(C)C(=O)c2cn(-c3ccccc3)nc2-c2ccc(F)cc2)cc1
22: CC(=O)C1CCCN(C(=O)c2ccc3oc(CCc4ccccc4)nc3c2)C1 (configuration not stated)
23: COc1ccc(-c2ccnc3c(C#N)cnn23)cc1
24: CCCN1CCC(=O)N([C@H](CO)c2ccccc2)CC1

Compound | 17 | 18 | 19 | 20 | 21 | 22 | 23 | 24
LANA-H2B inh | -6.9 | 3.1 | nt | -1.1 | -1.8 | -1.2 | 3.9 | -5.7
ALR H2O2 inh | -3.4 | -2.4 | nt | nt | -16.6 | 0.5 | -3.3 | nt
Vif TR-FRET | 8.2% | 9.7% | 1.5% | 3.2% | -11.4% | nt | -1.5% | nt
Calb FLC | 4.8 | -10.2 | nt | -17.2 | nt | 3.7 | -5.5 | -7.3
HNF4A DNA FP | -0.7 | 3.4 | 6.4 | -0.9 | 7.7 | 2.9 | 2.4 | -3.4
RanGTP-Imp inh | ? | 1.0 | nt | -5.4 | nt | 6.2 | 2.9 | -9.3
Beta2AR agonist | 3.2 | 3.7 | -1.0 | -4.2 | -2.2 | -10.1 | -13.1 | -0.3

25: COc1cccc(CN(C)C(=O)c2cccc(OC3CCN(C4CCCC4)CC3)c2)c1
26: O=C(NC(Cc1c[nH]c2ccccc12)c1nnc2n1CCCCC2)c1cccs1 (configuration not stated)
27: COC(=O)Cn1c(=NC(=O)c2cc(-c3cccs3)nc3ccccc23)sc2cc(S(N)(=O)=O)ccc21
28: COc1ccc(NC(=S)NCCCN2CCCC2=O)c(OC)c1
29: CCOC(=O)c1c(C)[nH]c(C(=O)/C(C#N)=C/c2ccc(OCC)cc2)c1C
30: C[C@@H]1CN(C(=O)c2ccc(OC3CCN(S(=O)(=O)N(C)C)CC3)cc2)C[C@H](C)O1
31: Cc1ccc(CNS(=O)(=O)c2c(C)[nH]c(C)c2C(=O)N2CCCCC2)cc1
32: COc1ccc(N2C(=O)CCC(C(=O)N3CCCCC3)C2c2ccc(F)cc2)cc1 (configuration not stated)

Compound | 25 | 26 | 27 | 28 | 29 | 30 | 31 | 32
LANA-H2B inh | 1.5 | -2.7 | -0.3 | -0.8 | -8.6 | -1.2 | 1.2 | 0.9
ALR H2O2 inh | -9.7 | -0.6 | -9.8 | -87.6 | 3.8 | 2.1 | 1.8 | -6.8
Vif TR-FRET | 7.8% | ? | -18.3% | -6.6% | 10.1% | nt | 1.9% | 20.1%
Calb FLC | -21.5 | -0.5 | 24.0 | -8.5 | 1.4 | -1.4 | 1.3 | -21.1
HNF4A DNA FP | -0.7 | 2.5 | 28.8 | -4.1 | 5.4 | -0.3 | 0.5 | -3.5
RanGTP-Imp inh | 1.0 | -0.2 | 4.1 | 2.1 | -2.2 | 0.5 | 2.3 | 5.3
Beta2AR agonist | -4.5 | -5.5 | 6.1 | -1.2 | -4.7 | 3.5 | 1.8 | 13.3

33: Cc1cccc(NC(=O)CCN2CCOCC2)c1
34: CC(C)Nc1nc(Cl)nc(N(C#N)CN2C(=O)c3ccccc3S2(=O)=O)n1
35: CN(C)S(=O)(=O)c1ccc(N2CCCC2)c(C(=O)Nc2ccccc2F)c1
36: CN1C(=O)C(CCC(N)=O)NC1=S (configuration not stated)

Compound | 33 | 34 | 35 | 36
LANA-H2B inh | -0.8 | -4.1 | 2.2 | -2.5
ALR H2O2 inh | nt | 31.0 | -5.2 | -2.4
Vif TR-FRET | 17.6% | 31.9% | 1.3% | 1.5%
Calb FLC | -2.6 | -3.5 | 3.4 | -1.2
HNF4A DNA FP | -1.1 | -2.8 | -3.2 | 3.0
RanGTP-Imp inh | 2.5 | 4.6 | 0.2 | -4.0
Beta2AR agonist | 4.4 | 10.5 | -3.5 | -5.0
